VDR inhibitor: inhibitors of human vitamin D receptor; P11473; VDR-SRC2-3 peptide fluorescence polarization, 2 h; Potency, µM, inactives show max response, negative = inhibition, usual class: inhibitors; 0.93% of 400,000 active; AID 504847; active = well fitted inhibition curve with a large enough effect; inconclusive = small, poorly fitted or top-dose-only effect, or another doubt; inactive = no such curve, though single readings can be large or run the other way; note: series mostly up to about 120 µM
Target sequence (P11473 whole entry, looked up): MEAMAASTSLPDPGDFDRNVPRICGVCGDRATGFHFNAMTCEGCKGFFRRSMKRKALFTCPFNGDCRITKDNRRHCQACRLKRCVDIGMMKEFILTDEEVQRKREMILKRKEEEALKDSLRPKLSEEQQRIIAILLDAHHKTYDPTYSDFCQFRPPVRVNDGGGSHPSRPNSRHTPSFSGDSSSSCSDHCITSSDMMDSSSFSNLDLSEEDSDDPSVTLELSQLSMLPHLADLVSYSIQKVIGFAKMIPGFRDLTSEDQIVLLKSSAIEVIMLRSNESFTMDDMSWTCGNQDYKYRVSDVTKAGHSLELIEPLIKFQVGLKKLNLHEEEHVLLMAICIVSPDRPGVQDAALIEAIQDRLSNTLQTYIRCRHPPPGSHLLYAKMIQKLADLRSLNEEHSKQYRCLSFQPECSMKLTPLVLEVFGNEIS
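Signal is fluorescence polarization, reporting how far test compounds block the interaction of VDR with the SRC2-3 coregulator peptide after a 2 h room-temperature incubation.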
* marks the source's active call; other numbers are inactive results; ? = inconclusive; & = joins results of further samples; [ ] = dose if it differs, or a comment. % is set by controls: 0 for no effect and ±100 for the full control effect; potency is the fitted concentration of half-maximal effect. A portion of the library; the hit share may differ from the screen's.

SMILES | VDR inhibitor
CN(C)c1ncc(S(=O)(=O)c2ccc(Cl)cc2)c(-c2ccc(Cl)cc2Cl)n1 | -5.8%
C/C(=N/NC(=O)c1ccco1)c1ccc(Br)s1 | 38.1%[activator]
COc1ccc(/C(C)=N/Nc2ccccc2Cl)c(O)c1 | -4.9%
COc1ccc(S(=O)(=O)N2CCCC2C(=O)Nc2nnc(-c3cccnc3)s2)cc1 (stereo not given) | ?
COc1ccc(OC)c(C(C(=O)NC2CCCCC2)N(C(=O)c2snc(C(N)=O)c2N)c2ccccc2OC)c1 (stereo not given) | -0.3%
N#CC1(NC(=O)COC(=O)c2ccc(-c3ccc(O)cc3)cc2)CCCCC1 | -5.9%
CCN(C(=O)CSc1nc2ccccc2n1CC(=O)NCc1ccc(OC)cc1)c1ccccc1 | 6.6%
Cc1ccc2c(c1)C(SCC(=O)NCCc1ccccc1)CC1(CCCC1)O2 (stereo not given) | -19.2%
NC(=S)NNC(=S)Nc1ccccc1 | ?
C=CCN(c1cccc(C(F)(F)F)c1)S(=O)(=O)c1cccc(C(=O)OCC(=O)NCCC)c1 | 10.5%
COC(=O)c1cc2oc3ccccc3c2n1CC(=O)Nc1ccc(C)c(F)c1 | 4.5%
CN=C1c2ccccc2CN1c1cccc(C(=O)OC)c1 | 6.2%
CCC(CC)C(=O)NCCc1ccc(OC)cc1 | -6.4%
COc1ccccc1C(=O)N1CCCCC1CCN1CCOCC1 (stereo not given) | 16.3%
CC(C)c1ccccc1OCC(=O)Nc1nnc(C2CC2)s1 | 9.3%
CC(C)C[C@H](NC(=O)[C@H](CC(C)C)NC(=O)[C@@H](Cc1c[nH]c2ccccc12)NC(=O)[C@H](Cc1ccccc1)NC(=O)[C@@H](Cc1c[nH]c2ccccc12)NC(=O)[C@H](CCC(N)=O)NC(=O)[C@H](CCC(N)=O)NC(=O)[C@@H]1CCCN1C(=O)[C@H](CCCCN)NC(=O)[C@@H]1CCCN1C(=O)[C@H](N)CCCN=C(N)N)C(N)=O | 3.3%
O=C(Cn1ncc2c([nH]c3ccccc32)c1=O)NCCCN1CCN(c2ccccc2)CC1 | 5.1%&14.1%
C=CCC[C@@H](Cc1ccc(F)cc1)C(=O)OC[C@H](C)NC(=O)[C@@H](CC=C)CC(=O)N[C@@H](CO)Cc1ccccc1 | 0.0%
O=C(NNCc1ccc(O)cc1)c1ccccc1Cl | -29.0%
COc1cc(=O)[nH]c(SCC(=O)Nc2ccc3ccccc3c2)n1 | 10.1%
O=C(O)c1cc(O)c2c(c1)C(=O)c1cc(O)cc(O)c1C2=O | -14.7%&7.3%
CNC(=O)Nc1cc(C(F)(F)F)cc(C(F)(F)F)c1 | 14.3%
COc1ccc(NC(=O)CN2CCC(NC(=O)C3CCCCC3)CC2)c([N+](=O)[O-])c1 | -15.7%
Cc1ccc(O)c(NC(=O)c2noc3c2CCCCC3)c1 | -13.6%&-4.3%
Cc1ccc2c(c1)NC(=O)C(CC(=O)NCCCN1CCN(c3cc(C)ccc3C)CC1)O2 (stereo not given) | -27.1%
COCCSc1nnc(NC(=O)C2CC(=O)N(C3CCCC3)C2)s1 (stereo not given) | 8.8%
O=c1oc(Cc2ccccc2)nc2ccccc12 | 2.6%
CCc1nnc(SCc2ccc(F)cc2Cl)c2cc3sc(C)cc3n12 | 17.0%
Cc1ccc(C)c(Cn2c(=O)n(CCCCCC(=O)NCc3ccc4c(c3)OCO4)c(=O)c3sccc32)c1 | 0.3%
COc1ccc(NC(=O)CN(C)C(=O)c2cc(C)on2)cc1 | 7.3%
O=C(c1ccccc1Cl)N1CCCCC1CCN1CCOCC1 (stereo not given) | 8.4%
CCOc1ccc(NC(=O)c2c(NCc3cccnc3)sc3c2CCC(C)C3)cc1 (stereo not given) | ?
COc1ccc(-c2cc3c(=O)n(CC(=O)NCc4ccc(F)cc4)ncn3n2)cc1 | -18.7%
CCOC(=O)c1cc2nc(Nc3ccc(OC)cc3)sc2s1 | 7.2%
CCc1nnc(NC(=O)CSc2nnc(-c3ccccc3O)n2CC)s1 | 2.3%
Cc1ccc2cccc(NC(=O)c3ccc(-c4cccc(Cl)c4Cl)o3)c2n1 | -1.6%
CCn1cc(C(=O)OCC(=O)Nc2cc(OC)cc(OC)c2)c(=O)c2ccc(C)nc21 | -0.5%
COc1ccc(Br)cc1CNC(=O)c1cc2c(=O)n(C)c3ccccc3c2s1 | -5.3%
Cc1ccn2c(-c3csc(NCc4ccco4)n3)c(C)nc2c1 | -6.6%
CC(C)N(Cc1nccn1C)C(=O)c1ccc(OC2CCN(C(=O)C3CC3)CC2)cc1 | -9.1%

Copied from the list:
C=CCN(c1cccc(C(F)(F)F)c1)S(=O)(=O)c1cccc(C(=O)OCC(=O)NCCC)c1 @ VDR inhibitor = 10.5%
COc1ccc(Br)cc1CNC(=O)c1cc2c(=O)n(C)c3ccccc3c2s1 @ VDR inhibitor = -5.3%
COCCSc1nnc(NC(=O)C2CC(=O)N(C3CCCC3)C2)s1 (stereo not given) @ VDR inhibitor = 8.8%

Going on with the list.
SMILES | VDR inhibitor
O=C(Nc1c[nH]c(=O)[nH]c1=O)c1cccc([N+](=O)[O-])c1 | -1.8%
NC(=O)CN(c1ccc([N+](=O)[O-])cc1)S(=O)(=O)c1ccccc1 | -24.1%
CC(OC(=O)Cc1ccccc1[N+](=O)[O-])C(=O)NC(=O)NC1CCCCC1 (stereo not given) | 3.3%
CN(CC(=O)Nc1ccccc1Cl)CC(=O)Nc1c(F)cccc1F | -8.4%
Cc1ccc(-c2nc(CS(=O)CC(=O)NCCc3ccc(Cl)cc3)c(C)o2)cc1 (stereo not given) | -10.8%
O=C(COC(=O)/C=C/c1ccc(Cl)cc1)NCCC1=CCCCC1 | -8.6%
Cc1cc(C)c(NC(=O)C(C)n2c(=O)cc(C)c3c(C)nn(-c4ccccc4)c32)c(C)c1 (stereo not given) | -2.7%
c1ccc(-c2cn3nc4c(nc3n2)CCCC4)cc1 | -4.1%
C/C(=N\OCC(=O)OCC(=O)NCc1ccccc1)c1ccc2c(c1)OCO2 | 4.5%
CC(OC(=O)CNC(=O)c1ccc2ccccc2c1)C(=O)N(C)C1CCCCC1 (stereo not given) | -10.7%
CCCCNC(=O)c1onc(CSc2cccc(OCC)c2)c1C(=O)O | 3.9%
Cc1ccc(S(=O)(=O)NCc2nc3nc(C)cc(C)n3n2)c(C)c1 | -16.3%&-13.3%
Cn1cnnc1SCC(=O)Nc1ccccc1C(=O)NC1CC1 | 13.2%
O=C(CN1CCOCC1)N/N=C/c1ccc(-c2ccc(Br)cc2)o1 | 13.8%
COc1cccc(CNC2CCCCCCC2)c1OC | 5.4%
O=C(Nc1ccc2c(c1)CCC2)c1cc(F)cc(F)c1 | -5.1%
O=C(c1ccc(S(=O)(=O)N2CCCCC2)cc1)N1CCN(c2ccccc2F)CC1 | 9.7%
CCOc1ccc(/C=C2\SC(=S)N(CCC(=O)Nc3ccc(C(=O)O)cc3)C2=O)cc1 | 10.1%
COc1cccc(C(=O)NCC(c2cccs2)N2CCOCC2)c1 (stereo not given) | 0.2%
COC(=O)C1C(=O)c2c([nH]c(C(=O)OC3CCCCCC3)c2C)CC1C (stereo not given) | 3.5%
COc1cc2ccccc2cc1C(=O)Nc1ccc2oc(-c3ccc(F)cc3Cl)nc2c1 | -12.0%
O=C(Cn1ncc2c(=O)oc3ccccc3c21)NCCN1CCN(c2ccccc2F)CC1 | 4.9%
CN(Cc1ccccc1)S(=O)(=O)c1nnc(NC(=O)c2ccc(F)cc2)s1 | -8.1%
CSc1ccc(C(=O)C2CCCN(C(=O)c3cc(C)n(C)n3)C2)cc1 (stereo not given) | 5.0%
CC(=O)C1=C(c2ccccc2)OC(N)=C(C#N)C1c1ccccc1F (stereo not given) | -20.0%
CCC(C)NC(=O)CN1C(=O)C(CC)Sc2ccccc21 (stereo not given) | -13.9%
C=CCNC(=O)CN(c1ccc(F)c(Cl)c1)S(C)(=O)=O | 6.1%
CCOc1ccc(-n2c(SCC(=O)Nc3ccc(OC)cc3)nc3c(c2=O)SCC3)cc1 | 32.1%[activator]
COC(=O)c1cccc(C23CC4(C2)[C@H](CN(Cc2cccnc2)[C@@H]4c2ccccc2)C3c2ccccc2)c1 (stereo not given in full) | -23.7%
Cc1cccc(CCNC(=O)c2cnc3c(C)cccn3c2=O)c1 | 15.2%
CCc1ccccc1NC(=O)c1cc2sc(Cl)cc2n1CC | 7.2%
O=C(OCC(=O)N1CCOCC1)c1ccc2c(c1)OCCO2 | 11.5%
Cn1c(SCC(=O)NNC(=O)c2ccccc2Br)nnc1C(F)(F)F | 13.6%
CCc1ccc(-c2cc(C)no2)cc1S(=O)(=O)Nc1cc(C)ccn1 | -15.9%
CC(C)CCN(C(=S)Nc1cccc(F)c1)C1CCN(C(C)C)CC1 | -8.2%
CCC1(CC)Cc2ccccc2C(C2=C(O)CC(C)(C)CC2=O)=N1 | 14.3%
CCOC(=O)CC(=O)c1cc(OC)c(OC)c(OC)c1 | 1.2%
Cc1cc(NC(=O)C(C)SCC(=O)Nc2ccccc2C(C)(C)C)no1 (stereo not given) | -28.6%
CCOC(=O)c1c(CSC(=N)N)n(-c2ccc(C)cc2)c2cc(Br)c(OC(C)=O)cc12 | -10.1%
O=C(NCc1cccnc1)C(=O)Nc1cc2c3c(c1)CC(=O)N3CCC2 | -5.9%
CC(C)(CO)Nc1nc(N2CCCC2)nc(N2CCCC2)n1 | ?
CC(C)c1nnc(NC(=O)CCC(=O)Nc2ccc3cn[nH]c3c2)s1 | 6.1%
Cc1cc(C(F)(F)F)nn1Cc1n[nH]c(=S)n1-c1cccc(Cl)c1 | 3.0%
CNC(=O)COC(=O)/C=C/c1cccc(F)c1 | 4.5%
Cc1ccc(CN2CCCN(CC(=O)Nc3ccc(C)cc3C)S2(=O)=O)cc1 | 19.5%
COC(=O)CNc1nc(Cl)nc(Nc2ccc(Cl)cc2)n1 | -17.3%
CCc1cc2c(cc3c(=O)n(CC(=O)NCCOC)nc(CC)n32)s1 | 16.2%
COc1ccc([N+](=O)[O-])cc1NCc1ccco1 | -5.9%
COc1ccc(NC(=O)CSc2nc(O)cc(=O)n2C)cc1 | 8.0%
Cn1cccc1CC(=O)N/N=C/c1cccc([N+](=O)[O-])c1 | 6.1%
CSc1nnnn1-c1c(C)cccc1C | -13.8%
Cc1nn2c(=O)cc(COC(=O)c3ccc(NC(=O)c4cccs4)cc3)nc2s1 | -8.9%
CCN(CC)S(=O)(=O)c1cccc(C(=O)N[C@H](C(=O)OCC(N)=O)C(C)C)c1 | -4.7%
O=C(Nc1cccnc1)c1sc(Nc2ccccc2F)nc1-c1ccccc1 | -5.7%
CCN(CC)CCCNC(=O)CSc1nc2c(c(C(F)(F)F)n1)CCc1ccccc1-2 | 8.9%
Brc1ccc2nc(N3CCCC3)sc2c1 | 2.1%
CCC1CCCCN1CCCNC(=O)c1ccc2c(c1)NC(=O)CS2 (stereo not given) | -7.1%
Cc1ccc(N=CC2=C(O)CC(C)(C)CC2=O)nc1 | -13.4%
O=C(NNC(=S)NC(=O)c1ccccc1[N+](=O)[O-])c1ccc(Cl)cc1Cl | -16.8%
O=C(NNc1c(Cl)cc(Cl)cc1Cl)c1cccc([N+](=O)[O-])c1 | -21.8%

Retrieved one by one from above (two):
SMILES | VDR inhibitor
Cc1nn2c(=O)cc(COC(=O)c3ccc(NC(=O)c4cccs4)cc3)nc2s1 | -8.9%
Cc1ccn2c(-c3csc(NCc4ccco4)n3)c(C)nc2c1 | -6.6%

Part of the list above, reformatted:
mol,VDR inhibitor
COC(=O)CNc1nc(Cl)nc(Nc2ccc(Cl)cc2)n1,-17.3%
CCc1cc2c(cc3c(=O)n(CC(=O)NCCOC)nc(CC)n32)s1,16.2%
COc1ccc([N+](=O)[O-])cc1NCc1ccco1,-5.9%
COc1ccc(NC(=O)CSc2nc(O)cc(=O)n2C)cc1,8.0%

Next part.
SMILES | VDR inhibitor
COc1ccc(C(=O)Cn2c(C(C)=O)nc3ccccc32)cc1 | -4.1%
CC1(C)CC2CC(C)(CN2C(=O)Cc2ccccc2)C1 (stereo not given) | 9.1%
Cc1cccc(C(=O)OC(C)C(=O)NCC2CCCCC2)c1O (stereo not given) | -9.1%
COc1ccccc1N1CCN(C(c2cc3cc(C)ccc3[nH]c2=O)c2nnnn2C2CCCC2)CC1 (stereo not given) | -6.1%
O=C(NCc1ccco1)c1ccccc1F | -17.7%
OC(CN1CCN(Cc2ccc3c(c2)OCO3)CC1)c1c[nH]c2ccccc12 (stereo not given) | -14.8%
COc1cc(C)ccc1NC(=O)Cc1csc(NC(=O)Nc2ccccc2OC)n1 | 9.9%
Cc1ccc2sc(N(Cc3cccnc3)C(=O)C3COc4ccccc4O3)nc2c1C (stereo not given) | 13.1%
CC(C)NC(=O)C1CCN(C2CCN(Cc3nc(C(C)C)cs3)CC2)CC1 | -8.5%
COc1ccc(N2CCN(C(=O)c3cccn4c(=O)c5ccccc5nc34)CC2)cc1 | -11.4%
COCCNC(=O)c1ccc(CSc2nc3ccccc3s2)cc1 | -19.2%
O=C1N[C@@H](Cc2ccccc2)COC(=O)[C@H](Cc2ccc(F)cc2)CC/C=C/C[C@@H]1CC(=O)N(CCO)Cc1ccccc1 | 1.6%
Cc1ccc(S(=O)(=O)N(CC(=O)N=Nc2c(O)[nH]c3ccccc23)c2ccc(C)c(C)c2)cc1 | -2.5%
O=[N+]([O-])c1cc([N+](=O)[O-])c(Oc2c(Cl)cccc2Cl)cc1NN1CCCCC1 | 3.7%
Cc1ccc(-n2c(=O)c3ccc(C(=O)NCc4ccccc4Cl)cc3n(CC(=O)Nc3cccc(Cl)c3)c2=O)cc1 | 3.2%
CCOC(=O)c1nn(-c2ccc(F)cc2)c2c1CC/C2=C/c1ccccc1 | 8.6%
CCOc1ccc(N2CC(C(=O)Nc3nnc(Cc4ccc(OC)cc4)s3)CC2=O)cc1 (stereo not given) | -17.2%
Clc1ccccc1CSc1cc2c(nn1)-c1ccccc1CC2 | -5.5%
CC1(C(=O)NCc2ccc(Cl)c(Cl)c2)Oc2ccccc2NC1=O (stereo not given) | -5.0%
CC(C)(C)c1ccc(C(=O)N2CCNCC2)cc1 | -7.0%

Screening data deposited in PubChem BioAssay by National Center for Advancing Translational Sciences (NCATS).
